# NPYLR7 ag = activates Aedes aegypti NPYLR7 receptor; HEK293T NPYLR7/Galpha15, GCaMP6s calcium fluorescence; 270,000 tested, 0.15% active; activation, % at 10 µM; AID 1259423; in the data active = activation above about 40%;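 note: 0% = vehicle and 100% = reference agonist at the receptor; some compounds past the cut are filed as inactive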
# NPYLR7 ag max-min = second read-out of NPYLR7 ag, no call of its own (marks repeat the call); activation, %; measured here: Max-Min RFU normalised activation; some inactives read as strong as hits;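 span of the calcium signal over five minutes; 0% = vehicle and 100% = native peptide agonist; compound fluorescence can raise it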
# Starred values were filed as active, the others as inactive.
SMILES	NPYLR7 ag	NPYLR7 ag max-min
CN1CCc2ccccc2C2(CCC(N(CC3CC3)C(=O)NC3CCCCC3)CC2)C1=O (stereo not drawn)	26	14
Cc1ccccc1Nc1nnc(C(O)c2ccc(CN3CCOCC3)cc2)s1 (stereo not drawn)	4	2
C=CCS(=O)(=O)N1CCCC(CCc2c(F)cccc2F)C1 (stereo not drawn)	14	6
c1ccc(N2CCN(c3ccccn3)CC2)cc1	5	3
Cc1onc(-c2ccccc2)c1C(=O)Nc1ccc(S(=O)(=O)Nc2nccs2)cc1	17	11
CCC(C)c1csc(N(C)C(=O)C(C)NC(N)=O)n1 (stereo not drawn)	7	3
NC(=O)c1cc2cc(Cl)ccc2oc1=Nc1ccccc1	-5	-9
CN(C)C(=O)Sc1ccc(NC(=O)CSc2ccccc2)cc1	-1	-2
COc1ccc(S(=O)(=O)N2CCN(c3ncccn3)CC2)cc1Br	2	2
CCOc1ccc2c(c1)sc(=NC(=O)C1=COCCO1)n2CCOC	2	-1
CCOC(=O)c1cc(-c2cccc(NC(=O)c3cnn(C)c3Cl)c2)n(-c2ccccc2F)n1	-3	-3
CC(=O)Oc1cccc(O)c1	-20	-27

# Later entries
SMILES	NPYLR7 ag	NPYLR7 ag max-min
CCOCCn1nc(C)cc1C(=O)N1C[C@H]2CC=CC[C@H]2C1	4	0
COc1ccc(OCCOc2ccc(C)cc2)cc1	27	13
COCCN1CC(C(=O)NC2(c3ccccc3)CC2)CCC1=O (stereo not drawn)	5	2
CC1(C(=O)NCC2CCCCC2)CCN1C(=O)C1(c2ccc(Cl)cc2)CC1 (stereo not drawn)	-2	-2
O=C(c1coc(CN(Cc2ccccc2)Cc2cccs2)n1)N1CCCC1	-5	-1
CCOc1ccc(C(=O)N2CCC(NS(=O)(=O)c3c(C)c(C)cc(C)c3C)CC2)cc1	9	8
CCn1ncnc1C(C)NC1CSCCSC1 (stereo not drawn)	2	-4
O=C1C(=Cc2ccc(Cl)cc2)CCC1=C1SCCCS1	0	-1
Cc1ccc(/C=C2\SC(=S)N(C(Cc3ccccc3)C(=O)O)C2=O)cc1 (stereo not drawn)	7	8
O=c1c2cc(Cl)ccc2nc(-c2cnc3ccccc3c2)n1Cc1ccccc1	2	-1
COc1ccc(/C=C/CN2CCC(O)(c3ccc(C)cn3)CC2)cc1	-4	-4
COc1cccc(-n2c(-c3ccc(Cl)cc3)cc(C(=O)NCc3cccc(C(F)(F)F)c3)c2C)c1	-1	3

# Other structures:
SMILES	NPYLR7 ag	NPYLR7 ag max-min
CCc1nc2n(n1)C(=O)C(C(c1ccc(OC)c(OC)c1)N1CCN(Cc3ccccc3)CC1)S2 (stereo not drawn)	19	11
COc1ccccc1-n1c(SCC(=O)NCC2CCCO2)nnc1-c1ccccc1Cl (stereo not drawn)	4	11
Cc1cc2nc(-c3ccc(NC(=O)c4ccccc4Cl)cc3)oc2cc1C	-6	-19
COCCN(CCC(=O)NC(Cc1ccccc1)c1ccccc1)c1nc(Cc2ccc(C)cc2)ns1 (stereo not drawn)	14	10
Cc1[nH]nc(CCC(=O)N2CCCC3(CNC(=O)O3)C2)c1C (stereo not drawn)	4	4
O=C(NCc1ccc2c(c1)OCO2)c1ccc2oc(CCc3ccccc3)nc2c1	-2	-7
OC1CCC(Nc2nccc3[nH]c(-c4cccc(OC(F)(F)F)c4)nc23)CC1 (stereo not drawn)	1	-6
NCC(=O)N1CCC(N2CCCC(C(=O)N3CCOCC3)C2)CC1 (stereo not drawn)	4	2
Cc1ccc(C(=O)N2CCC(c3ccccc3)CC2)cc1[N+](=O)[O-]	-6	-13
Nc1c(-c2nc(-c3ccc4c(c3)OCO4)no2)nnn1-c1ccc(Cl)cc1	3	2
COc1cccc(OCc2nc(C(=O)NCc3ccncc3)cs2)c1	12	5
COc1ccc(N2CCN(C3CCCN(C(=O)C4(c5ccccc5)CC4)C3)CC2)cc1 (stereo not drawn)	-6	-12

# Some values from the list:
# CCc1nc2n(n1)C(=O)C(C(c1ccc(OC)c(OC)c1)N1CCN(Cc3ccccc3)CC1)S2 (stereo not drawn) – NPYLR7 ag = 19
# OC1CCC(Nc2nccc3[nH]c(-c4cccc(OC(F)(F)F)c4)nc23)CC1 (stereo not drawn) – NPYLR7 ag = 1
# COCCN(CCC(=O)NC(Cc1ccccc1)c1ccccc1)c1nc(Cc2ccc(C)cc2)ns1 (stereo not drawn) – NPYLR7 ag max-min = 10
# COc1cccc(OCc2nc(C(=O)NCc3ccncc3)cs2)c1 – NPYLR7 ag max-min = 5
# Cc1ccc(C(=O)N2CCC(c3ccccc3)CC2)cc1[N+](=O)[O-] – NPYLR7 ag max-min = -13

# Later entries.
SMILES	NPYLR7 ag	NPYLR7 ag max-min
Cc1cc(C)c(NC(=O)CSc2nc(=O)n3ccccc3n2)c(C)c1	-1	-4
O=C(NCCc1cccc(Cl)c1)c1ccc(-c2cc(-c3ccc(Cl)cc3Cl)[nH]n2)cc1	2	13
OC(CC1CCCN1Cc1ccncc1)c1ccccc1 (stereo not drawn)	10	4
COc1ccc(CN(CCc2c[nH]c3ccccc23)C(=O)CN(C(=O)COc2ccc(Cl)cc2)C(C)C)cc1OC	16	6
COCc1c(Br)c(C)nc(OCC(=O)N/N=C\c2ccncc2)c1C#N	-11	-20
O=C(Oc1cccc2cccnc12)c1cc(Br)ccc1I	-15	-21
FC(F)(F)C1CN(Cc2nccn2Cc2ccccc2)CCO1 (stereo not drawn)	6	-5
O=S(=O)(O)c1ccc2c(c1)Cc1cc(S(=O)(=O)O)ccc1-2	-1	-3
Cc1cc(N2CCCCC2)nc(Nc2ccc(NC(=O)c3cccc4ccccc34)cc2)n1	9	3
C=CCN(Cc1csc(COc2cccc(C)c2)n1)S(=O)(=O)c1ccc(OC)cc1	17	14
COc1cc(C)c(SCC(C)(C)O)cc1OC	-8	-11
CN(C)c1ccccc1C(=O)N1CCC2(CC1)c1ccccc1[C@@H](N)[C@@H]2O	8	7

# 2 entries from above, with values under each structure:
# The line under a structure holds: NPYLR7 ag | NPYLR7 ag max-min
COc1ccc(CN(CCc2c[nH]c3ccccc23)C(=O)CN(C(=O)COc2ccc(Cl)cc2)C(C)C)cc1OC
→ 16 | 6
FC(F)(F)C1CN(Cc2nccn2Cc2ccccc2)CCO1 (stereo not drawn)
→ 6 | -5

# Next structures
SMILES	NPYLR7 ag	NPYLR7 ag max-min
Oc1oc(-c2ccc(Cl)cc2)nc1C=Nc1ccc(Br)cc1Br	-3	-10
O=c1ccccn1CCN1CCc2ccccc21	-3	-8
CCCCCOc1ccc(C(=O)N2CCc3[nH]c4ccc(F)cc4c3C2)cc1OCCCCC	-7	-13
COC(=O)CCCC(=O)N1CCC(Cc2ccc(-c3ccccc3)cc2)CC1	-8	-11
CCOC(=O)c1[nH]ncc1C1CC(=O)Nc2c1ccc(N1CCCC1)c2C (stereo not drawn)	19	15
O=C(c1ccc(-c2cccc(C(F)(F)F)c2)s1)N1CC=C(c2ccccc2)CC1	21	11
CCn1ccnc1CN(C)C(=O)C1CCCN(C2CCN(C(=O)C3CC3)CC2)C1 (stereo not drawn)	5	1
CCC(=NNC(=O)c1ccc(F)cc1)c1cc(Cl)cc(Cl)c1O	-1	-8
OC(c1ccc(CN(Cc2ccsc2)Cc2ccco2)o1)(c1cccs1)c1cccs1	8	13
CCCCCn1c(SCC(=O)C(C)(C)C)nc2cc(C(=O)N3CCOCC3)ccc2c1=O	0	1
CCOc1ccc(N=Nc2c(-c3ccccc3)[nH]n(-c3nc(-c4ccccc4)cs3)c2=O)cc1	16	28
CCCCNC(=O)N1CCC2(CC1)SCCN2C(=O)c1ccc(Cl)cc1	8	11

# Continued.
SMILES	NPYLR7 ag	NPYLR7 ag max-min
CC(=O)Oc1ccccc1C(=O)OCCN=C1NS(=O)(=O)c2ccccc21	7	3
CCCCOCCCNC(=O)c1cnc2c(-c3ccc(F)cc3)cnn2c1C	5	-6
C=c1c(C#N)c2[nH]c(N)c(C#N)c(C)c-2/c1=C\c1ccco1	3	13
Cc1ccc2[nH]cc(-c3ccc(CN)s3)c2c1	13	9
Cc1ccc(N2NC(C(=O)N3CCN(S(=O)(=O)c4ccc(F)cc4F)CC3)=NCC2=O)cc1	-2	-3
O=S(=O)(Nc1cccc(-n2cccn2)c1)c1ccccc1Br	1	1
OC(c1ccccc1)C1CCN(CCCc2nc3ccccc3o2)CC1 (stereo not drawn)	5	3
Cn1c(SCc2coc(-c3cccs3)n2)nnc1-c1cccnc1	6	1
CCOc1ccccc1-n1c(=O)[nH]c2c(C(N)=O)nc(CC)nc21	10	4
COc1ccccc1C1CCCN1Cc1nc(-c2ccc(OC)c(C)c2OC)oc1C (stereo not drawn)	-9	-16
Cc1ccccc1-n1cnn(CN2CCN(c3ccc(F)cc3)CC2)c1=S	-1	1
CCCn1c(=O)c2c(nc3n2CCN3c2cc(C)ccc2C)n(C)c1=O	1	0

# (list continues)
SMILES	NPYLR7 ag	NPYLR7 ag max-min
COc1ccc(-n2c(SCC(=O)Nc3cc(C)on3)nc3c([nH]c4ccccc43)c2=O)cc1	1	36
COc1ccc(NC(=O)c2sc(=O)n(Cc3ccc(OC(F)(F)F)cc3)c2C)cc1	-1	-4
Cc1nc(OCC(C)C)c2sc3nc4c(cc3c2n1)COC(C)(C)C4	2	1
CCc1ccc(C(=O)N2CCC3(CC2)OCC(C(=O)NCc2ccncc2)N3C(=O)c2ccc(OC)cc2)cc1 (stereo not drawn)	-1	2
CCc1cc(C(C)=O)c(O)cc1OCCCCCC(C)(C)c1nn[nH]n1	-12	-16
O=C(NCc1cccs1)c1cccnc1N1CCN(C(=O)C2C[C@H]2c2ccccc2)CC1 (stereo partly drawn)	-2	-1
COc1ccc(-n2cc(CN(C)C(C)c3nccs3)c(-c3cccc(F)c3)n2)cc1 (stereo not drawn)	17	15
Cc1ccc(S(=O)(=O)N(C)c2c(C)ccc(S(=O)(=O)NCc3ccccc3)c2C)cc1	-5	-7
CCCCC(=O)Nc1c(-c2ccccc2)nc2ccccn12	-4	-3
CN(Cc1ccco1)S(=O)(=O)c1ccccc1F	-2	-4
CC(NC(=O)c1cc2ccccc2c(=O)[nH]1)c1ccccc1 (stereo not drawn)	9	6
Cc1nc2nc(C(F)(F)F)nn2c(C)c1CCC(=O)NC1=NCCS1	4	3

# The list goes on.
SMILES	NPYLR7 ag	NPYLR7 ag max-min
O=[N+]([O-])c1ccc(Nc2nc(N3CCOCC3)nc(N3CCOCC3)n2)cc1	0	-7
CCc1cnc(CN(C)C2CCN(C3CC(C)OC3=O)C2)o1 (stereo not drawn)	1	0
CC1=C(C(=O)NC2CC(=O)N(Cc3cccc4ccccc34)C2)OCCO1 (stereo not drawn)	13	7
Cc1ccc(NC(=O)CSc2cn(CC(=O)N3CCCCC3)c3ccccc23)cc1	-3	-8
O=C(Nc1cccc(N2CCC(NCc3ccccc3OC(F)(F)F)CC2)c1)c1ccncc1	7	3
CCCCC(C1C(=O)CCCC1=O)C1C(=O)CCCC1=O	4	3
NC(=O)c1ccc(N2CCN(Cc3ncc(-c4ccc(Cl)cc4)o3)CC2)nc1	6	7
COc1ccc(CNC(=O)CCC2CCCN(C(=O)c3cn4ccccc4n3)C2)c(OC)c1 (stereo not drawn)	20	10
O=C(NCc1cccnc1N1CCc2ccccc2C1)c1cnccn1	0	-2

# Gathered by group: the compounds so far containing an aryl methoxy group.
SMILES	NPYLR7 ag	NPYLR7 ag max-min
COc1ccc(S(=O)(=O)N2CCN(c3ncccn3)CC2)cc1Br	2	2
COc1ccc(OCCOc2ccc(C)cc2)cc1	27	13
COc1ccc(/C=C/CN2CCC(O)(c3ccc(C)cn3)CC2)cc1	-4	-4
COc1cccc(-n2c(-c3ccc(Cl)cc3)cc(C(=O)NCc3cccc(C(F)(F)F)c3)c2C)c1	-1	3
CCc1nc2n(n1)C(=O)C(C(c1ccc(OC)c(OC)c1)N1CCN(Cc3ccccc3)CC1)S2 (stereo not drawn)	19	11
COc1ccccc1-n1c(SCC(=O)NCC2CCCO2)nnc1-c1ccccc1Cl (stereo not drawn)	4	11
COc1cccc(OCc2nc(C(=O)NCc3ccncc3)cs2)c1	12	5
COc1ccc(N2CCN(C3CCCN(C(=O)C4(c5ccccc5)CC4)C3)CC2)cc1 (stereo not drawn)	-6	-12
COc1ccc(CN(CCc2c[nH]c3ccccc23)C(=O)CN(C(=O)COc2ccc(Cl)cc2)C(C)C)cc1OC	16	6
C=CCN(Cc1csc(COc2cccc(C)c2)n1)S(=O)(=O)c1ccc(OC)cc1	17	14
COc1cc(C)c(SCC(C)(C)O)cc1OC	-8	-11
COc1ccccc1C1CCCN1Cc1nc(-c2ccc(OC)c(C)c2OC)oc1C (stereo not drawn)	-9	-16
COc1ccc(-n2c(SCC(=O)Nc3cc(C)on3)nc3c([nH]c4ccccc43)c2=O)cc1	1	36
COc1ccc(NC(=O)c2sc(=O)n(Cc3ccc(OC(F)(F)F)cc3)c2C)cc1	-1	-4
CCc1ccc(C(=O)N2CCC3(CC2)OCC(C(=O)NCc2ccncc2)N3C(=O)c2ccc(OC)cc2)cc1 (stereo not drawn)	-1	2
COc1ccc(-n2cc(CN(C)C(C)c3nccs3)c(-c3cccc(F)c3)n2)cc1 (stereo not drawn)	17	15
COc1ccc(CNC(=O)CCC2CCCN(C(=O)c3cn4ccccc4n3)C2)c(OC)c1 (stereo not drawn)	20	10

# An excerpt; the hit share may differ from the screen's.
